Kir21 block = inhibitors of mouse Kir2.1 inward-rectifier potassium channel | HEK293-Kir2.1, FluxOR thallium flux fluorescence; stronger effect = lower value | B-score at 10 µM | hit rate 0.85% among 310,000;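 active = fluorescence ratio B-score at or below minus 3 SD of library scores, with starting-brightness B-score within 2 SD, cut at about -4.2 in these data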;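 also: channel flux triggered by added potassium and thallium sulfate stimulus; B-score of peak minus minimum fluorescence over baseline after thallium stimulus; more negative B-score means stronger Kir2.1 block with less thallium influx; some compounds called inactive have numbers as strong as hits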
Target sequence (P35561 whole entry, looked up): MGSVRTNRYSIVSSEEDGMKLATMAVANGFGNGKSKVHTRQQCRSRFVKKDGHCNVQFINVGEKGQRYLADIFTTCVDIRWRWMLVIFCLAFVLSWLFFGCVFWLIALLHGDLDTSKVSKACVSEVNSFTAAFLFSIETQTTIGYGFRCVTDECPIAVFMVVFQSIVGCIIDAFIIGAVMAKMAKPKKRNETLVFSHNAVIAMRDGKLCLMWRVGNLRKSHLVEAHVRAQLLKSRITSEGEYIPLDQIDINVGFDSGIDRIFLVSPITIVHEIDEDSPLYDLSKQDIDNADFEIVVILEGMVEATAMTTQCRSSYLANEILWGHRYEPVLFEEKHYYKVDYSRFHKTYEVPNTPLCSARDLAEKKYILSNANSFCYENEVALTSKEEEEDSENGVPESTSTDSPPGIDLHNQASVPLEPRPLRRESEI
Numbers without * were called inactive. An excerpt; most or all hits stand in other tables.

| Structure | Kir21 block |
| --- | --- |
| COc1ccc(Nc2nnc(SCC3CCCCO3)s2)cc1 (stereo unspecified) | 0.02 |
| CC(=O)c1cc(CN2CCC(N3CCC(C(=O)NC(C)C)CC3)CC2)cs1 | 0.44 |
| CC(C)c1ccc(OCC(=O)NC(C)c2ccccc2)cc1 (stereo unspecified) | -3.11 |
| CC(=O)Nc1ccc(/C=N/N2CCCCC2)cc1 | 0.1 |
| CC1CCCN(CC(O)COc2ccc(Cl)cc2)C1 (stereo unspecified) | -0.23 |
| Cc1ccc(Cn2c(SCc3cccnc3)nc3c2c(=O)n(C)c(=O)n3C)cc1 | 2.39 |
| COC(=O)C1=C(N)OC2=C(C(=O)CC(C)(C)C2)C1c1ccoc1 (stereo unspecified) | 0.03 |
| CS(=O)(=O)c1cccc(NC(=O)c2ccc(Cl)c(Cl)c2)c1 | 0.64 |
| C/C(N)=C(/C#N)C(=O)CSc1nc2ccccc2c(=O)n1Cc1ccc(C)cc1 | -0.1 |
| O=C(CSc1nnc(-c2cccc(Cl)c2)o1)Nc1ccc2c(c1)OCCO2 | 1 |
| CCc1nc(OCCN(C)C)c2oc3ccccc3c2n1 | 0.55 |
| O=C(CSc1nnc(NC(=O)Cc2ccccc2)s1)NCC1CCCO1 (stereo unspecified) | 0.18 |
| CC(C)CCNC(=O)C1CCC(CNc2c(N3CCC(C)CC3)c(=O)c2=O)CC1 (stereo unspecified) | 0.43 |
| COc1ccc(S(=O)(=O)N(C)CC(=O)NCCc2ccccc2)cc1OC | -0.82 |
| CC(C)C(NC(=O)c1ccccc1NC(=O)c1ccccc1)C(=O)NNC(=O)c1ccncc1 (stereo unspecified) | -0.12 |
| Cn1cnnc1Sc1nc2c(c(=O)n(C)c(=O)n2C)n1Cc1ccccc1Cl | 0.81 |
| O=C(OCc1cc2ccccc2[nH]c1=O)C1CCCCC1 | 0.71 |
| CCOc1ccc(CCNS(=O)(=O)c2cccc3nsnc23)cc1OCC | -3.84 |
| O=C1Nc2ccccc2C1=Nc1cccc(Cl)c1 | 0.59 |
| COc1cc(NC(=O)C2=C(C)OCCS2)c(Cl)cc1C(=O)NCCN1CCN(C)CC1 | -0.29 |
| COc1ccc(C(=O)N/N=C/c2ccc(OC)c(OS(=O)(=O)c3ccccc3)c2)cc1 | 3 |
| COc1ccc(OC)c(-c2cc(C(=O)N/N=C(\C)c3cccnc3)c3ccccc3n2)c1 | -0.35 |
| O=C(CSc1ccc(-c2nc3ccccc3[nH]2)cn1)Nc1ccc2c(c1)OCCO2 | -1.68 |
| COc1ccccc1-n1c(-c2ccc(F)cc2)coc1=O | -0.53 |
| O=c1[nH]c2ccccc2n2c(-c3ccccc3)nnc12 | 1.39 |
| CC1CC(C)(C)CC2(C1)NC(=O)N(CC(=O)NCCc1c[nH]c3ccccc13)C2=O (stereo unspecified) | -0.56 |
| Cc1ccc2nccc(C(=O)N3CCCC(N4CCN(c5ccc(F)cc5)CC4)C3)c2c1 (stereo unspecified) | 1.34 |
| CC(=O)N1CCc2cc(Br)cc(S(=O)(=O)CCC(=O)N3CCN(c4ccccn4)CC3)c21 | -0.89 |
| O=C(CCNS(=O)(=O)c1ccc(Br)cc1)N1CCCCCCC1 | -0.47 |
| COC(=O)C1CCN(Cc2cc(=O)oc3cc(C)c(Cl)cc23)CC1 | 0.02 |
| O=C(NCCc1c[nH]c2ccccc12)c1cc(S(=O)(=O)N2CCCCC2)ccc1N1CCOCC1 | -0.06 |
| O=C(O)c1ccc(CSCc2ccccc2F)o1 | -1.07 |
| COc1ccccc1NC(=O)Cn1ncc2c1-c1ccccc1OC2 | -0.82 |
| COc1cccc(-c2nnc3sc(-c4ccccn4)nn23)c1 | 0 |
| O=C(NCCc1ccc(Cl)cc1)c1ccc(=O)[nH]c1 | -0.06 |
| CCOC(=O)CSc1nc2sc3c(c2c(=O)[nH]1)CCCC3 | 0.55 |
| S=C(NCc1ccco1)Nc1ccc(Oc2ccc(Cl)cc2)cc1 | 1.58 |
| CC1(C)CC(=O)C(N=Nc2cc(S(=O)(=O)N3CCOCC3)ccc2Cl)=C(O)C1 | 0.16 |
| CCSc1ccccc1C(=O)Nc1cccc(OC)c1 | 0.78 |
| COC(=O)c1cc(NC(=O)c2ccco2)ccc1N1CCOCC1 | 0.01 |
| O=C(CSc1nc(=O)n2ccccc2n1)N1CCCCCC1 | 0.04 |
| COc1cc(C(=O)N2CCC(NC(=O)C(Cc3ccccc3C)NC(C)=O)CC2)cc(OC)c1OC (stereo unspecified) | 0 |
| CCN(CC(=O)NCc1cccs1)C(=O)c1cccc(S(=O)(=O)NCc2ccccc2)c1 | -0.11 |
| O=C(CCCC(=O)c1ccccc1)NCCc1ccccc1 | 0.08 |
| CCOc1ccc(N2CC(C(=O)NCc3ccccn3)CC2=O)cc1 (stereo unspecified) | -0.4 |
| O=C(NCCCNC(=O)c1cc(Cl)ccc1Cl)c1ccco1 | -1.18 |
| O=C(Nc1ccc2c(c1)OCO2)c1cccc2c1C(=O)N(C1CCCCC1)C2 | 0.59 |
| Cc1ccc(CSCc2ccc(C(=O)NC3CCCC3)o2)cc1 | 0.31 |
| COc1cccc(C(C(=O)NC2CCCC2)N(C(=O)c2ccco2)c2ccc(C(C)=O)cc2)c1OC (stereo unspecified) | 1.74 |
| CCCCc1c(O)nc2sc3cc(OC)ccc3n2c1=O | -0.81 |
| CC(NC(=O)CC12CC3CC(CC(C3)C1)C2)C(=O)O (stereo unspecified) | 0.77 |
| Cc1cc(C(=O)CSc2nnc(-c3ccc4c(c3)OCO4)o2)c(C)n1-c1ccc(F)cc1 | -2.25 |
| CCOC(=O)CSCC(=O)N1CCC(Cc2ccccc2)CC1 | -0.05 |
| Cc1cccc(/C(N)=N/OC(=O)Cc2cccc3ccccc23)c1 | 0.08 |
| O=C1CC(SC(=Nc2ccccc2)Nc2ccccc2)C(=O)N1c1cccc2ccccc12 (stereo unspecified) | -1.35 |
| CCOC(=O)c1c(-c2ccc(Cl)cc2)cn2ccccc12 | 0.82 |
| C/C(=N/n1cnnc1)c1cccnc1 | 0 |
| COc1cc(OC)cc(-n2nnnc2SCC(=O)N2CCCC2)c1 | 0.02 |
| COc1ccc(OC)c(C(C)NC(=O)C(C)Cc2ccccc2)c1 (stereo unspecified) | -0.13 |
| CCN1C(=O)c2cccc3c(S(=O)(=O)Nc4ccncc4)ccc1c23 | -0.18 |

More entries follow:
| Structure | Kir21 block |
| --- | --- |
| COc1ccccc1NC(=O)c1oc2ccccc2c1NC(=O)c1ccco1 | 0 |
| COc1ccccc1CNC(=O)c1cc(-c2ccccc2)nn1Cc1cc(C)no1 | -0.72 |
| CC1(C)CC(=O)CC2(C1)NCC(c1ccccc1Cl)c1c2[nH]c2ccccc12 (stereo unspecified) | 0.75 |
| CC1CCCN(C(=O)c2cccc(S(=O)(=O)Nc3cc(C(F)(F)F)ccc3Cl)c2)C1 (stereo unspecified) | 0.81 |
| CCOc1ccc([N+](=O)[O-])c(N)c1 | 0.99 |
| O=C(Nc1ccc(Cl)cc1)c1cc(S(=O)(=O)N2CCOCC2)cs1 | 0.15 |
| CCCn1c(SCCN2C(=O)c3ccccc3C2=O)n[nH]c1=O | 0.18 |
| O=C(c1ccco1)N1C2C=CC(C2)C1(C(F)(F)F)C(F)(F)F (stereo unspecified) | 0.84 |
| CCN(CC)c1nc2ccccc2[nH]1 | 0.37 |
| CCCCC/S(CC1CC1(Cl)Cl)=N\S(=O)(=O)c1ccc(C)cc1 (stereo unspecified) | -1.7 |
| CCOC(=O)Cc1csc(N/N=C/c2ccc(Cl)cc2)n1 | -0.36 |
| S=c1[nH]nc(-c2cc(-c3ccccc3)n[nH]2)n1/N=C/c1cccs1 | 0.35 |
| CCn1c(SCC(=O)NCCOC)nc2sc3c(c2c1=O)CCCC3 | 0.03 |
| Cc1cc(SCc2ccccc2F)nc(=O)[nH]1 | 1.52 |
| CC1CCCN(S(=O)(=O)c2ccccc2[N+](=O)[O-])C1 (stereo unspecified) | -0.29 |
| CCOc1ccc(C)cc1-n1nc2ccccc2n1 | -1.34 |
| COc1ccccc1N1CCN(C2CCCN(Cc3c(F)cccc3F)C2)CC1 (stereo unspecified) | 2.5 |
| Cc1ccc(NS(=O)(=O)c2ccc(CCC(=O)O)cc2)cc1 | -1.24 |
| O=C(Nc1ccccc1N1CCCCC1)c1ccc2nccnc2c1 | -0.78 |
| CCC(=O)Nc1ccc(OCC2CCCO2)cc1 (stereo unspecified) | -1.06 |
| Cn1nc(C(F)(F)F)c2cc(C(=O)NC3CC3)sc21 | -1.1 |
| CCN(CC)CCN(C(=O)/C=C/c1cccs1)c1nc2ccc(Cl)cc2s1 | -0.99 |
| CCn1c(SCC(=O)NCC2CCCO2)nc2c(c1=O)SC(C)C2 (stereo unspecified) | 0.6 |
| N#C/C(=N\Nc1ccc(Cl)cc1)C(=O)c1ccccc1 | -0.01 |
| Nc1cc(=O)[nH]c(SCC(=O)Nc2cccc(Cl)c2)n1 | 0.89 |
| Cc1nc2sc3c(c2c(=O)o1)CCC3 | 0.02 |
| CCN(C(=O)CSc1ccc2c(c1)OCCO2)C1CCS(=O)(=O)C1 (stereo unspecified) | -1.27 |
| CCCS(=O)(=O)N1CCN(c2cc3c(cc2[N+](=O)[O-])n(C)c(=O)n3C)CC1 | 0.21 |
| CCCCn1c(N)c(N(CC(C)C)C(=O)CN2C(=O)C3CCCCC3C2=O)c(=O)[nH]c1=O (stereo unspecified) | -0.59 |
| CN(CC(=O)NCc1ccncc1)S(=O)(=O)c1ccc(Cl)cc1 | -1.15 |

Next compounds:
compound	Kir21 block
O=C(Nc1ccc(S(=O)(=O)NCC2CCCO2)cc1)C1CC(=O)N(c2ccccc2)C1 (stereo unspecified)	-1.32
CCN1C(=O)c2cccc3c(NC(=O)c4ccc(OC)c(OC)c4)ccc1c23	2.29
COc1ccc(S(=O)(=O)NCCOc2ccccc2)cc1C	-1.63
COc1ccc(CNC(=O)c2ccc(-c3ccccc3)cc2)cc1OC	-0.31
CC1(C)Cn2c(nnc2-c2cccc(O)c2)S1	-1.18
FC(F)(F)c1ccc(-c2nnc(-c3cccnc3)o2)cc1	-0.57
COC(=O)c1ccc(Cn2cc(Cl)cn2)cc1	-1.1
Cc1sc2ncn(CC(=O)NCC3COc4ccccc4O3)c(=O)c2c1S(=O)(=O)N1CCOCC1 (stereo unspecified)	-0.21
Cc1ccc(C(=O)Nc2cccc(-c3cn4ccccc4n3)c2)cc1	0.07
CCN(CC)S(=O)(=O)c1ccc(F)c(C(=O)OC2CC(C)OC2=O)c1 (stereo unspecified)	0.39
CC(=O)c1cccc(NC(=O)c2sc(Cl)nc2C)c1	0.24
Cc1nn(C)c2ncc(C(=O)c3ccccc3O)cc12	-0.05
O=C(CNC(=O)/C(=C\c1ccc(F)cc1)NC(=O)c1ccccc1)OCc1ccccc1	-0.11
CCC(C)(C)NC(=O)C(c1ccccc1F)N(C(=O)c1ccn[nH]1)c1ccccc1 (stereo unspecified)	-0.06
Cc1cc(=O)oc2cc(OCCSCCN3CCCC3)ccc12	0.12
COc1cc(C)c(-c2cc(C(=O)O)c(C)o2)cc1C(C)C	-0.37
Cc1ccc(Sc2ncccc2C(=O)NCc2cc([N+](=O)[O-])ccc2O)c(C)c1	-0.29
CC(/C=N\NC(=O)Cn1cncn1)=C/c1ccc(C(C)C)cc1	-0.48
CN1C(=O)c2ccc(NC(=O)c3ccc(N4CCCCC4)c([N+](=O)[O-])c3)cc2C1=O	0.17
O=C(CN1CCCC1)OCCCC1CCCCC1	-0.84
C=CCSc1nc(C)c(CCC(C)C)c(=O)[nH]1	-0.27
CC(=O)N1c2ccc(S(=O)(=O)NCC3CCC(C(=O)NCc4ccc(C)o4)CC3)cc2CC1C (stereo unspecified)	-1.04
CCOC(=O)N1CCN(CCC(=O)Nc2ccccc2)CC1	-1.52
N#CC(Nc1ccccc1)c1ccccc1OCc1ccccc1 (stereo unspecified)	0.61
O=C(O)CCCC(=O)NCCCc1ccccc1	-0.69

Molecules listed so far containing a thiophene ring, fused or not, in the order listed:
compound	Kir21 block
CC(=O)c1cc(CN2CCC(N3CCC(C(=O)NC(C)C)CC3)CC2)cs1	0.44
CCOC(=O)CSc1nc2sc3c(c2c(=O)[nH]1)CCCC3	0.55
CCN(CC(=O)NCc1cccs1)C(=O)c1cccc(S(=O)(=O)NCc2ccccc2)c1	-0.11
O=C(Nc1ccc(Cl)cc1)c1cc(S(=O)(=O)N2CCOCC2)cs1	0.15
S=c1[nH]nc(-c2cc(-c3ccccc3)n[nH]2)n1/N=C/c1cccs1	0.35
CCn1c(SCC(=O)NCCOC)nc2sc3c(c2c1=O)CCCC3	0.03
Cn1nc(C(F)(F)F)c2cc(C(=O)NC3CC3)sc21	-1.1
CCN(CC)CCN(C(=O)/C=C/c1cccs1)c1nc2ccc(Cl)cc2s1	-0.99
Cc1nc2sc3c(c2c(=O)o1)CCC3	0.02
Cc1sc2ncn(CC(=O)NCC3COc4ccccc4O3)c(=O)c2c1S(=O)(=O)N1CCOCC1 (stereo unspecified)	-0.21

(listing goes on)
compound	Kir21 block
O=C(CSc1ccccn1)Nc1cccc(NC(=O)CSc2ccccn2)n1	0.19
O=S(=O)(c1cccc(C(F)(F)F)c1)N1CCN(c2ccccc2)CC1	-0.4
O=C(Cn1nnc(-c2ccccc2)n1)Nc1ccccc1N1CCOCC1	-0.52
CCC(=O)c1ccc(OCc2ccc(C(=O)OC)cc2)c(OC)c1	1.45
CC[C@@]12C(=O)N(c3cccc(Br)c3)C(=O)N1[C@H](c1ccc(Cl)cc1)[C@@H]1C(=O)N(C3CCCCC3)C(=O)[C@@H]12	0.25
O=C1c2cc(S(=O)(=O)NCCCO)ccc2-c2ccc(S(=O)(=O)NCCCO)cc21	-0.2
C=C(C)CSc1nc(N)c2c(C)c(C)sc2n1	2.15
O=C(COc1cc(O)c2c(=O)c3ccccc3oc2c1)OCc1ccccc1	-1.29
C/C(=N/NC(=O)c1ccoc1C)c1cccc(NC(=O)C(F)(F)F)c1	0.32
Cc1ccc(CNC(C)c2ccccc2)cc1 (stereo unspecified)	0.04
CCCCn1c(SCC(=O)NCc2ccco2)nc2cc(S(N)(=O)=O)ccc21	-0.87
Cc1cc(NC(=O)CSc2nccn2-c2ccc([N+](=O)[O-])cc2)no1	0.08
CCc1ccccc1NC(=O)N1CCC(NC(=O)C(Cc2ccc(OC)c(OC)c2)NC(C)=O)CC1 (stereo unspecified)	1.12
